High-throughput results (PubChem)
HTT promoter inh: inhibitors of huntingtin promoter activity. HEK293 HTT promoter firefly luciferase reporter (activity 0% = vehicle and -100% = no light), 24 h. Potency, µM (doses to about 57.5 µM), without a hit: top-dose activity change, negative = inhibition, most hits filed as inhibitors. AID 1508623. hit rate 0.93% among 48,000; active means well fitted inhibition curve with a large enough effect; inconclusive means small, poorly fitted or top-dose-only effect; inactive means no such curve, though single readings can be large or run the other way; further: nearly all actives have a fitted effect of over 50% in size
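Firefly luciferase readout (Dual-Glo, 10 min RT) after 24 h, 37 °C compound exposure (final up to 57.5 uM) of HEK293 reporter cells cultured 24 h beforehand; PTC124 at 50 uM final as control inhibitor; activity scaled vehicle 0%, zero RLU -100%.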
PMP22 txn prim: modulates PMP22 transcription in S16 Schwann cells. hit rate 2% among 43,000. Potency, µM (highest dose often 57.5 µM), without a hit: top-dose activity change, negative = inhibition, hits mostly inhibitors. S16 Pmp22-F2sN Schwann cells (luciferase reporters placed in the Pmp22 gene), FLuc/NLuc coincidence luminescence, 24 h; active = clear falling dose curves in both reporters; inconclusive = both reporters move, but less clearly or upward; inactive = either reporter flat; the % is the NLuc reporter signal; further: on the % scale 0 is the no-effect control and ±100 the full control effect; some results filed as inactive show a strong effect at the top dose
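S16 Schwann cells carrying FLuc/NLuc coincidence reporter in the Pmp22 3' UTR treated with compound 24 h at 37C; FLuc then NLuc luminescence read sequentially by dual-luciferase reagents.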
Active calls of the source: *; ? = inconclusive; . = no result given; & = joins results of further samples. Potency means the concentration at half of the fitted maximal effect.

Each structure is followed by: HTT promoter inh, PMP22 txn prim
1	COc1cccc(CNC(=O)Cn2cc3c(n2)-c2c(oc(C(=O)N4CCOCC4)c2C)CC3)c1
  ?, -22%
2	CCN(c1cccc(C)c1)S(=O)(=O)c1c(C)nc2sc(C)cn2c1=O
  -8%, ?
3	COc1ccc2c(CNCc3cccs3)c(C(=O)O)n(Cc3ccc(F)cc3)c2c1
  -26%, ?
4	Cc1ccc(NC(=O)CN2CCSc3ccc(S(=O)(=O)N4CCCC4)cc32)cc1
  ?, ?
5	Cc1ccc(-c2[nH]c(-c3ccccc3)nc2SCC(=O)NCC2CCCO2)cc1 (stereo not drawn)
  -26%, -5%
6	COc1cccc(NC(=O)c2nnn(Cc3ccc(OC)c(Br)c3)c2N)c1
  -25%, 2%
7	Cc1ccc(CNC(=O)C2CCCN(S(=O)(=O)c3cn(C)cn3)C2)cc1 (stereo not drawn)
  -21%, 9%
8	O=C(NCc1ccc(F)cc1)c1ccc(NC(=O)N2CC3CCCN3c3ccccc32)cc1 (stereo not drawn)
  ?, -2%
9	O=C(Nc1ccc2c(c1)CCCN2C(=O)c1cccs1)c1cccc(C(F)(F)F)c1
  ?, ?
10	CCOc1ccccc1C(=O)N(Cc1cccs1)c1ccc(Cl)cc1
  ?, -18%
11	CCCCn1cc2c(c1-c1ccc(Br)cc1)c(=O)n(C)c(=O)n2C
  ?, ?
12	O=C(CN1C(=O)CC(c2ccc(F)cc2)=Nc2ccccc21)NCc1ccccc1Cl
  -24%, -8%
13	Cc1ccc2oc3c(c(=O)c2c1)C(c1ccccc1F)N(c1ccccn1)C3=O (stereo not drawn)
  -14%, 11%
14	Cc1nn(-c2ccccc2)c(OC(=O)C(C)C)c1Sc1ccccc1
  -7%, 17%
15	CCN1CCOC(=O)C1CC(=O)Nc1cccc(OC)c1 (stereo not drawn)
  -6%, 13µM*

Reformatted in markdown: 2 of the compounds above
| No. | Structure | HTT promoter inh | PMP22 txn prim |
| --- | --- | --- | --- |
| 11 | CCCCn1cc2c(c1-c1ccc(Br)cc1)c(=O)n(C)c(=O)n2C | ? | ? |
| 2 | CCN(c1cccc(C)c1)S(=O)(=O)c1c(C)nc2sc(C)cn2c1=O | -8% | ? |

Continuation:
Each structure is followed by: HTT promoter inh, PMP22 txn prim
16	CCCC12CN3CC(CCC)(CN(C1)C3c1c[nH]c3ccc(OC)cc13)C2=O (stereo not drawn)
  -14%, ?
17	Cc1ccc(N2C(=O)CSC23C(=O)N(CC(=O)NCc2ccccc2)c2ccccc23)cc1C (stereo not drawn)
  -16%, -18%
18	COc1ccc(CCN(C)CCCN2CCc3cc(OC)c(OC)cc3CC2=O)cc1OC
  -1%, .
19	CN(C)c1ccc(CNC(=O)C2CCCN(S(=O)(=O)c3ccc4c(ccn4C)c3)C2)cc1 (stereo not drawn)
  ?, ?
20	CCOC(=O)C1CCN(S(=O)(=O)c2cc(-c3onc(C)c3C)ccc2C)CC1
  ?, -4%
21	COC(=O)Nc1nc2ccc(C(=O)c3ccc(F)cc3)cc2[nH]1
  -14%, .
22	Cc1ccc(N2CC(C(=O)NCCS(=O)(=O)N3CCN(c4ccc(F)cc4)CC3)CC2=O)cc1 (stereo not drawn)
  -11%, 3%
23	Cc1ccccc1OCc1ccc(-c2nc(C#N)c(NCCCN(C)C)o2)o1
  -8%, ?
24	COc1ccccc1CCNC(=O)C(=O)NCC(c1cccs1)S(=O)(=O)c1ccccc1 (stereo not drawn)
  ?, 7%
25	O=C(CSc1nnc(NC(=O)Nc2ccccc2)s1)Nc1cccc(F)c1
  22%, ?
26	CCCCCOC(=O)c1ccc(OC(=O)c2sc3ncn(Cc4cccc(F)c4)c(=O)c3c2C)cc1
  0%, -7%
27	COc1ccc(Nc2ncnc3onc(C)c23)c(OC)c1
  -9%, -2%
28	CCC(=O)Nc1ccc(C)cc1-c1nc2ccccc2n(CC(=O)Nc2ccccc2Cl)c1=O
  -10%, -17%
29	O=C(Nc1ccc2oc(-c3ccccc3F)nc2c1)c1ccccc1Cl
  25%, -21%
30	CCOc1ccc(C(=O)Nc2c(C(=O)N3CCN(c4ccccc4F)CC3)oc3ccccc23)cc1
  7%, -15%
31	CCC(=O)N1CCc2cc(CNC(=O)Nc3cc(C)ccc3C)ccc21
  -23%, -7%
32	COC(=O)c1sc2cccc(F)c2c1S(=O)(=O)N1CCN(c2cccc(C)c2)C(C)C1 (stereo not drawn)
  -23%, ?
33	Cc1c(CNC2CCC(C)CC2)c(C(=O)O)c(C)n1Cc1ccccc1F (stereo not drawn)
  -12%, -10%
34	CCNc1nc(OC)nc(Oc2ccc(=O)[nH]n2)n1
  -2%, -10%
35	Cc1cccc(CNC(=O)c2cnc3c(-c4cccc(C)c4)c(C)nn3c2C)c1
  -20%, -3%
36	Cc1cccc(N2CCN(C(=O)CN3C(=O)COc4ccc(S(=O)(=O)N5CCCC5)cc43)CC2C)c1 (stereo not drawn)
  -25%, ?
37	CCN(CC)S(=O)(=O)c1ccc2c(c1)c(=O)c(C(=O)N1CCN(c3cc(C)ccc3C)CC1)cn2C
  -20%, ?
38	CCOc1ccc(Sc2cc(C(=O)NC(C)CC)c3ccccc3n2)cc1 (stereo not drawn)
  -14%, -34%
39	CCN(CCCNC(=O)CSc1cc(=O)n(C)c2ccccc12)c1ccccc1
  -13%, -11%
40	Cc1cccn2c(=O)c(C(=O)NCc3ccc(F)cc3)c(O)nc12
  -2%, -7%
41	CC(C)CCNC(=O)c1ccc(Cn2c(SCC(N)=O)nc3ccccc3c2=O)cc1
  -2%, -38%
42	COc1ccc(C)cc1NC(=O)CCS(=O)(=O)c1ccc2c(c1)CC(=O)N2C
  -14%, -9%
43	CCOc1ccc(N(C)S(=O)(=O)c2c(C(=O)N3CCC(C)CC3)c(C)n(C)c2C)cc1
  -23%, 17%
44	CCOc1ccc(-c2nc3c(c(SCC(=O)N4CCCCC4)n2)Cc2cccc(OC)c2O3)cc1
  -11%, -21%
45	COc1ccc(C)cc1NC(=O)c1sc2nc(-c3ccc(F)cc3)cn2c1C
  1%, -11%
46	Cn1c(=O)n(C)c2cc(N3CCOCC3)c(NS(=O)(=O)c3ccc(C(C)(C)C)cc3)cc21
  -19%, -29%
47	CCCCCCCCCCCCOCCO
  -3%, .
48	COc1ccc2c(c1)c1c(c(=O)n(-c3ccccc3)c(=O)n1CC(=O)Nc1ccc(C)c(C)c1)n2C
  -19%, ?
49	CSc1ccc(CNC(=O)C2CCN(c3nc4ccccc4nc3C(F)(F)F)CC2)cc1
  -4%, ?
50	COc1ccc(OCC(O)Cn2c(=N)n(CCN3CCCCC3)c3ccccc32)cc1 (stereo not drawn)
  -16%, ?
51	COc1ccc(-c2cn3nc(N4CCC(C(=O)Nc5cccc(C)c5C)CC4)sc3n2)cc1
  -16%, -33%
52	O=C(CSc1nc2ccccc2n1Cc1cccc(F)c1)NCc1ccccc1
  -10%, -5%
53	Cc1ccc(Cn2c(C)c3cnn(CC(=O)N4CCN(c5ccc(F)cc5)CC4)c(=O)c3c2C)cc1
  14µM*, ?
54	Cc1ccccc1-c1nc2scc(CCNC(=O)c3ccco3)n2n1
  0%, -19%
55	Cc1ccc(C)c(N2CCN(C(=O)c3cc(C)nc4c3c(C)nn4-c3cccc(F)c3)CC2)c1
  ?, -2%
56	COc1ccc(CC(=O)N2CC(=O)Nc3ccc(Br)cc3C2c2ccc(F)cc2)cc1 (stereo not drawn)
  -29%, -5%
57	COc1cccc(CNC(=O)c2ccc3nc(CCc4ccccc4)oc3c2)c1OC
  -1%, -43%
58	COc1ccc(Cn2c(CNC(=O)Cc3ccc(OC)c(OC)c3)nc3cccnc32)cc1
  -4%, 0%
59	COc1ccc(-c2c(C)nn3c(-c4ccccc4)cc(-c4ccccc4)nc23)cc1
  -13%, -2%
60	CCSc1ncc(Cl)c(C(=O)Nc2nc3ccc(S(C)(=O)=O)cc3s2)n1
  -19%, -3%

Filtered by structure: those above containing a COOH group
Each structure is followed by: HTT promoter inh, PMP22 txn prim
3	COc1ccc2c(CNCc3cccs3)c(C(=O)O)n(Cc3ccc(F)cc3)c2c1
  -26%, ?
33	Cc1c(CNC2CCC(C)CC2)c(C(=O)O)c(C)n1Cc1ccccc1F (stereo not drawn)
  -12%, -10%

Continued:
Each structure is followed by: HTT promoter inh, PMP22 txn prim
61	CC1CCN(C(=O)CSc2c3c(nc4ccc(Cl)cc24)CCCC3)CC1
  -26%, ?
62	CCc1ccccc1NC(=O)c1ccc2nc(C(C)C)oc2c1
  ?, 17µM*
63	CCOC(=O)c1c(NC(=O)c2cc(=O)c3cc(C)cc(C)c3o2)sc(C)c1C
  14%, -3%
64	CCOc1ccc(CNC(=O)CCCc2cn(C)c3ccccc23)cc1OC
  ?, 3%
65	Cc1ccc(NC(=O)CN2C(=O)c3ccccc3Sc3ccc(C(=O)N4CCOCC4)cc32)cc1F
  -34%, -28%
66	CCC(=O)O[C@]1(C(=O)CO)CC[C@H]2[C@@H]3CCC4=CC(=O)CC[C@]4(C)[C@@H]3CC[C@@]21C
  13%, .
67	O=C(NCc1ccccn1)c1nn(-c2ccccc2Cl)nc1CO
  -1%, -16%
68	CCN(CC)c1nc2c(S(=O)(=O)c3ccccc3)nnn2c2ccc(Cl)cc12
  ?, ?
69	CCc1cccc(C)c1NC(=O)Cn1c(=O)cc(C(F)(F)F)c2c(C)nn(C)c21
  2%, -21%
70	Cc1cccc(Cn2cc(C(=O)Nc3ccc(F)c(C(F)(F)F)c3)ccc2=O)c1
  ?, -21%
71	COc1ccc(C)cc1NC(=O)C(=O)NCCc1sc(-c2cccc(C)c2)nc1C
  5%, ?
72	CCCc1nn2c(=O)cc(COc3ccc(/C=C(\C#N)C(=O)Nc4ccc(F)cc4)cc3)nc2s1
  -8%, ?
73	Cc1cc(NC(=O)CN(c2cccc(C)c2C)S(=O)(=O)c2ccccc2)ccc1Br
  ?, ?
74	CCCOc1ccc(C2=NC(c3ccncc3)=Nc3ccc(C)cc3N2)cc1
  -25%, -27%
75	CCOC(=O)c1c(C)[nH]c(CCC(=O)NCCCN2CCN(c3ccc(F)cc3)CC2)c1C
  -21%, ?
76	O=C(CC(c1cccs1)N1Cc2ccccc2C1=O)Nc1ccc(F)cc1F (stereo not drawn)
  -16%, -12%
77	Cc1ccc(Cl)cc1N1CCN(C(=O)c2ccc(NC(=O)c3nsc4ccccc34)cc2)CC1
  ?, -23%
78	COc1ccc(OC)c(-c2noc(N3CCN(c4cc(Cl)ccc4C)CC3)n2)c1
  ?, ?
79	Cc1ccccc1NS(=O)(=O)c1ccc2[nH]cc(C(=O)NC3CCCCC3)c(=O)c2c1
  ?, ?
80	Cc1oc(-c2ccccc2)nc1CNS(=O)(=O)c1ccc(Cl)cc1
  -3%, 5%
81	CCc1cc(Cl)c(OC)c(C(=O)NC[C@@H]2CCCN2CC)c1O
  4%, .
82	Cc1csc2nc(-c3cccc(NC(=O)c4ccc(S(N)(=O)=O)cc4)c3)cn12
  25%, 0%
83	COc1ccccc1Nc1nc(-c2ccc(F)cc2)c2c(n1)-c1ccccc1OC2
  -15%, 12%
84	Cc1ccc(-n2nc(C)c3c(C)c(CCC(=O)NCc4ccccc4Cl)c(C)nc32)cc1C
  -8%, -13%
85	CCOc1ccc(NC(=O)Cn2c(=O)n(CCCCC(=O)NCCc3ccc(Cl)cc3)c(=O)c3ccccc32)cc1
  -2%, ?
86	Clc1cccc(N2CCN(c3ncnc4c3nc3n4CCCC3)CC2)c1
  -28%, ?
87	CCOc1ccccc1NC(=O)Cn1c(=O)nc(-c2ccccc2F)c2cc(Cl)ccc21
  ?, ?
88	Cc1cccc(C(=O)NCCc2nc3ccccc3n2Cc2ccccc2Cl)c1
  0%, -23%
89	CCOc1ccc(OCC)c(-n2cnnn2)c1
  -7%, -9%
90	CCc1ccc(CNC(=O)c2ccc(CS(=O)c3ccc(Br)cc3)o2)cc1 (stereo not drawn)
  ?, -19%
91	COc1ccc(CNC(=O)c2cc(-c3ccc(Br)s3)nc3ccccc23)cc1
  -8%, ?
92	N#C/C(=C\c1ccc(-c2ccc(C(=O)O)cc2)o1)C(=O)Nc1ccccc1C(=O)O
  -6%, -4%
93	CC(C)c1ccc(NC(=O)CN(C)S(=O)(=O)c2ccc3c(c2)n(C)c(=O)c(=O)n3C)cc1
  -18%, -55%
94	CN1C(C(=O)Nc2ccccn2)=C(O)c2ccccc2S1(=O)=O
  -1%&-1%, .
95	COc1ccccc1-c1c(C)nn2c(C(F)(F)F)cc(-c3ccccc3)nc12
  -14%, -35%
96	Cc1ccc(C)c(CN2C(=O)c3ccccc3Sc3ccc(C(=O)NC4CCCC4)cc32)c1
  ?, -5%
97	O=C(NCc1ccc2c(c1)OCO2)c1ccc2c(c1)N(Cc1cccc(Cl)c1)C(=O)c1ccccc1S2=O (stereo not drawn)
  -20%, 3%
98	CN(C)c1ccc(CNC(=O)c2cnc3sc(N4CCOCC4)nn3c2=O)cc1
  4%, -2%
99	COc1ccc2oc(=O)c(-c3nc(-c4cccs4)no3)cc2c1
  2%, -17%
100	COCCCNC(=O)CSc1nc2cc3c(cc2c(=O)n1CCCCCC(=O)NCc1ccc(OC)cc1)OCO3
  -12%, 8%
101	Cc1ccc(C)c(NC(=O)c2cnn(-c3ccc(F)cc3F)c2C2CCNCC2)c1
  -20%, -17%
102	COc1ccc(C(=O)N2CCc3cc(OC)c(OC)cc3C2COc2ccccc2OC)cc1 (stereo not drawn)
  -25%, -12%
103	Cc1cccc(-n2c3nc(=O)[nH]c(=O)c-3cc3c(Cl)cccc32)c1C
  -35%, ?

Rows are unselected. Share with any hit: about 2.4%.
